RE007 growth inh – qHTS Assay for Inhibitors of the HIV-1 protein Vpr | Potency, µM (series often up to 92.2 µM), without a hit: at the highest dose activity change, negative = less growth | AID 651644, 2012 | 360,000 compounds, 0.21% hits | S. pombe RE007 Vpr strain, BacTiter-Glo ATP luminescence, 24 h; control for the full effect not named in the record; active = well fitted falling curve with a large enough effect; inconclusive = small, poorly fitted or top-dose-only effect; inactive = no such curve, though single readings can be large or run the other way;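 note: % is set by controls: 0 for no effect and ±100 for the full control effect; nearly all actives have a fitted effect of over 50% in size; the assay follows cell death caused by Vpr and the record does not say whether a fall means rescue or toxicity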
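Fission yeast RE007 carrying one integrated HIV-1 vpr copy, seeded at OD 0.01 in PMG+AL medium with 23 nL pinned compound. Grown 24 h at 30 degrees; viability read by BacTiter-Glo luminescence after 5 min.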
NS1 inh – qHTS Assay for Inhibitors of Influenza NS1 Protein Function. S. cerevisiae slowed by influenza A NS1, growth recovery by OD600. Potency, µM (highest dose often 46.1 µM), inactives show top-dose activity, positive = more growth. 270,000 compounds, 0.4% hits; active means well fitted rising curve with a large enough effect; inconclusive means small, poorly fitted or top-dose-only effect; inactive means no such curve, though single readings can be large or run the other way; note: nearly all actives have a fitted effect of over 50% in size
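OD600 was taken as the measure of yeast growth restored by compound in an NS1-expressing S. cerevisiae strain. Cells had been washed out of glucose medium and diluted 1:100 into galactose -URA medium, pH 6.0.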
Cruzain inh Det – qHTS Assay for Promiscuous and Specific Inhibitors of Cruzain (with detergent) | Cruzipain (Trypanosoma cruzi), P25779 | Potency, µM, inactives show max response, negative = inhibition, actives largely listed as inhibitors | purified cruzain, Z-FR-AMC fluorescence, 0.01% Triton | 200,000 compounds, 0.43% hits;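 note: plate controls were neutral wells for no effect and buffer without enzyme for full effect; nearly all actives have a fitted effect of over 40% in size; top concentration of the series not given in the record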
Target sequence (P25779 123-467 limits assumed): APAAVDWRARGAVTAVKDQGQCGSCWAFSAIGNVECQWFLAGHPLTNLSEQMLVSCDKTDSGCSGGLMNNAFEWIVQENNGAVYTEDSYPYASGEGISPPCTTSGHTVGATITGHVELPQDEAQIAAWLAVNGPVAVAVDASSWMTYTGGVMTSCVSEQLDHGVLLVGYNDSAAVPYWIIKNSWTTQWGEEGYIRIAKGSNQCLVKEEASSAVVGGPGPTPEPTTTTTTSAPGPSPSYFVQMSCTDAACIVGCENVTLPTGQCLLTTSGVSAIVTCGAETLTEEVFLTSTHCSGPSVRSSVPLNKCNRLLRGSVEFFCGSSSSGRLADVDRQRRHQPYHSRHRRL
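Enzyme 1.5 nM, Z-FR-AMC 2 uM, NaOAc 100 mM pH 5.5, DTT 5 mM, Triton X-100 0.01%; 15 min RT compound preincubation; kinetic ex360/em450, 60 s delta.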
StopGo reporter – High Throughput Screening for Foot and Mouth Disease Virus Antivirals; human cells with a luciferase reporter of 2A StopGo recoding; control for the full effect not named in the record; Potency, µM (doses to about 57.9 µM), for inactives: at the top dose signal change, negative = less light; 410,000 compounds, 1.2% hits; AID 1159524, 2015; active = well fitted falling curve with a large enough effect; inconclusive = small, poorly fitted or top-dose-only effect; inactive = no such curve, though single readings can be large or run the other way; tested in HEK293T cells; note: % is set by controls: 0 for no effect and ±100 for the full control effect; nearly all actives have a fitted effect of over 45% in size; luciferase light after 4 h
SARS PLpro yeast – qHTS of Yeast-based Assay for SARS-CoV PLP; 330,000 compounds, 0.19% hits; AID 485353, 2010; S. cerevisiae expressing SARS-CoV PLpro, growth rescue; control for the full effect not named in the record; Potency, µM (series often up to 32.9 µM), inactives show top-dose activity, positive = growth rescue; active means well fitted rising curve with a large enough effect; inconclusive means small, poorly fitted or top-dose-only effect; inactive means no such curve, though single readings can be large or run the other way; note: 0% is about no effect; nearly all actives have a fitted effect of over 55% in size; growth read by luminescence after 48 h
MARV entry inh – qHTS for inhibitors of binding or entry into cells for Marburg Virus; Potency, µM (highest dose often 37.8 µM), for inactives: at the highest dose activity change, negative = inhibition, most hits filed as inhibitors; Marburg virus pseudotyped entry inhibition, cell reporter; control for the full effect not named in the record; about a third of the inactives were read at about 46 µM; 300,000 compounds, 1.8% hits; AID 540276, 2011; active = well fitted inhibition curve with a large enough effect; inconclusive = small, poorly fitted or top-dose-only effect, or effect the other way; inactive = flat fitted curve, though single readings scatter; tested in HEK293 cells; about a fifth of its hits are not listed in these tables; note: % is set by controls: 0 for no effect and ±100 for the full control effect; luciferase read-out
Cruzain inh noDet – qHTS Assay for Promiscuous and Specific Inhibitors of Cruzain (without detergent). Cruzipain (Trypanosoma cruzi), P25779. Potency, µM, for inactives: max response, negative = inhibition, hits mostly inhibitors. 200,000 compounds, 2.3% hits. purified cruzain, Z-FR-AMC fluorescence, no detergent;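 note: plate controls were enzyme without inhibitor for no effect and buffer without enzyme for full effect; nearly all actives have a fitted effect of over 40% in size; top concentration of the series not given in the record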
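Detergent-free condition (0.00005% Triton X-100) in acetate buffer pH 5.5 with DTT. 1.5 nM enzyme and compound were pre-mixed 15 min, then 2 uM Z-FR-AMC substrate added; reaction progress from fluorescence change between first and third reads (60 s).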
Lassa entry inh – qHTS for Inhibitors of binding or entry into cells for Lassa Virus; Lassa virus pseudotype entry inhibition, cell reporter; control for the full effect not named in the record; AID 540256, 2011; Potency, µM (series often up to 37.9 µM), for the others: at the highest dose activity change, negative = inhibition, actives largely listed as inhibitors; 300,000 compounds, 1.2% hits; active means well fitted inhibition curve with a large enough effect; inconclusive means small, poorly fitted or top-dose-only effect, or effect the other way; inactive means flat fitted curve, though single readings scatter; tested in HEK293 cells; note: % is set by controls: 0 for no effect and ±100 for the full control effect; nearly all actives have a fitted effect of over 50% in size; luciferase read-out
An asterisk follows results filed as active; u = inconclusive; x = not tested or not shown; [ ] = another dose, or the depositor's remark. Unless noted, calls come from the whole dose curve; as a rule, active = well fitted curve in the direction sought with a large enough effect; inconclusive = small, poorly fitted or top-dose-only effect, or another doubt; inactive = no such curve, though single readings can be large; an effect the other way counts as inactive or inconclusive. Potency is the fitted concentration of half-maximal effect.

SMILES	RE007 growth inh	NS1 inh	Cruzain inh Det	StopGo reporter	SARS PLpro yeast	MARV entry inh	Cruzain inh noDet	Lassa entry inh
O=c1[nH]c2cc(Cl)cc(Cl)c2[nH]c1=O	14.4%	-7.2%	-1.2%	-20.2%	-3.2%	-1.0%	-2.4%	1.2%
O=C(O)CCn1c(SCc2ccccc2)nc2ccccc21	7.3%	-5.1%	1.2%	x	2.5%	-1.0%	-27.3%	7.0%
O=C(O)C1CSC2(c3ccc(Br)cc3)CCC(=O)N12 (stereo not given)	29.4%	9.9%	x	-0.9%	4.4%	u	x	1.9%
O=C(COC(=O)Cc1ccc(F)cc1)NCCc1ccccc1	5.0%	x	x	-8.5%	0.4%	7.9%	x	5.1%
CCCCc1nnc(NC(=O)Cc2ccc(OC)c(S(=O)(=O)N3CCOCC3)c2)s1	-29.3%	x	x	-14.3%	-2.3%	-19.0%	x	12.0%
CN1CCN/C1=C(/C(Cl)=C(Cl)Cl)[N+](=O)[O-]	-3.0%	x	x	-5.8%	1.2%	0.7%[46.1 µM]	x	12.1%
CN1CCc2c(c3c(n2C)CCN(C)[C@H]3c2ccccc2F)[C@@H]1c1ccccc1F	x	0.7%	5.9%	x	-2.9%	0.9%	-1.5%	x
CC(C)C1C(c2ccccc2)N(C)C(c2ccccc2)CC1(O)c1ccccc1 (stereo not given)	-5.3%	2.0%	-5.2%	-29.9%	-2.6%	14.6µM*	-6.7%	u
CC(C)COP(=O)(c1ccc(N(C)C)cc1)C(Nc1ccccc1)c1cccnc1 (stereo not given)	3.8%	-8.4%	-1.4%	-6.9%	-4.2%	-1.2%	21.2%	0.8%
CCc1nc(Nc2ccc(O)cc2)c2oc3ccccc3c2n1	5.2%	-8.2%	x	u	-2.1%	u	x	u
COc1cccc(-c2nc(CS(=O)CC(=O)NCc3ccc(F)cc3)c(C)o2)c1 (stereo not given)	-14.9%	6.2%	x	8.7%	2.8%	x	x	x
CCOc1cccc(-c2c(C(=O)N/N=C/c3ccc(C)o3)nnn2-c2nonc2N)c1	17.5%	14.4%	x	10.1%	-0.9%	-3.9%[46.1 µM]	x	9.4%[46.1 µM]
CC(=O)N1CC(=O)N(OCc2ccccc2)C1c1ccc(Cl)cc1Cl (stereo not given)	-8.3%	-4.0%	-1.7%	0.2%	0.5%	0.3%	15.6%	25.9%
CCCCCn1c(=O)[nH]c2cc(C(=O)O)ccc2c1=O	0.2%	-1.3%	-1.9%	3.4%	2.8%	-1.0%	-12.0%	-1.5%
CCOC(=O)C1(Cc2ccccc2)CCCN(C2CCN(C(C)=O)CC2)C1 (stereo not given)	1.4%	1.2%	x	-10.2%	-1.0%	u	x	-23.6%
CCC(C)C(=O)Nc1nnc(SCC(=O)NC2CCCC2)s1 (stereo not given)	4.9%	-0.7%	x	-3.7%	-1.2%	-6.3%[46.1 µM]	x	-0.9%[46.1 µM]
Cc1ccc(NC(=O)CN2C(=O)COc3ccc(C)cc32)nc1	0.6%	-4.6%	-0.4%	-15.7%	7.7%	-7.6%	-7.2%	-27.7%[14.3 µM]
O=C(CCCSc1nc2ccccc2s1)NC1=NCCS1	-25.5%	-47.0%	-1.0%	-11.3%	-17.6%	u	28.9%	-23.8%
COc1ccc(/C=C(/NC(=O)c2ccccc2)C(=O)NCCCn2ccnc2)cc1OC	3.3%	11.7%	x	0.0%	15.7%	x	x	x
CCC(C)[C@H](NC(=O)Nc1ccc(C)cc1C)C(=O)O (stereo not given in full)	0.5%	2.5%	x	0.3%	0.9%	5.1%	x	x
C=C(C)CNC(=S)N/N=C(\C)c1cccc(NC(C)=O)c1	0.7%	x	x	-27.7%	0.4%	u	x	x
COc1ccc(C(=O)CSc2nnc(CC(=O)Nc3ccccc3OC)n2C)cc1	1.0%	x	x	-12.3%	0.9%	17.3%[46.1 µM]	x	-4.0%
O=C(C1CCN(C2CCN(C/C=C/c3ccccc3)CC2)CC1)N1CCOCC1	6.3%	-0.2%	x	-6.3%	1.0%	u	x	-10.4%[46.1 µM]
COc1ccc(CC(=O)N(C)Cc2cccc(OC)c2OC)cc1S(=O)(=O)N1CCOCC1	-8.6%	x	x	-22.7%	-4.9%	-21.3%	x	u
COc1ccc(/C=C(/NC(C)=O)C(=O)O)cc1	-0.2%	-1.3%	2.6%	-0.8%	0.7%	u	3.6%	-9.6%
Cc1ccc(Nc2c(-c3ccc(Cl)cc3)nc3sccn23)c(C)c1	x	x	-5.9%	-22.0%	x	-24.0%[46.1 µM]	31.6µM*	-11.5%[46.1 µM]
Cc1[nH]nc2c1C1(C(=O)Nc3ccc([N+](=O)[O-])cc31)C(C#N)=C(N)O2 (stereo not given)	8.5%	2.5%	2.2%	-3.4%	-0.5%	0.0%	-19.2%	30.2%
CCOC(=O)c1nnc(-c2ccccc2)nc1N1CC(C)OC(C)C1 (stereo not given)	-2.3%	0.0%	x	-1.6%	1.2%	-20.9%[46.1 µM]	x	-16.9%
COc1ccc(NC(=O)CCc2c(C)nn(-c3ccc(N4CCCC4)nn3)c2C)cc1Cl	x	x	-5.3%	21.3%	x	x	20.7%	u
CC1(c2ccccc2)NC(=O)N(CC(=O)Nc2ccc(S(N)(=O)=O)cc2)C1=O (stereo not given)	3.4%	10.1%	x	8.3%	8.9%	17.9%[46.1 µM]	x	x
CC(C)CNC(=O)NC(=O)COc1ncnc2sccc12	2.7%	11.9%	1.7%	5.8%	0.6%	u	-2.8%	14.9%
COc1ccc(-c2noc(CC(=O)Nc3ccc(Br)cc3C)n2)cc1	x	x	-0.4%	-12.2%	x	x	-6.5%	-0.9%[46.1 µM]
COc1cc2c(cc1OC)CN(C(=O)C(CCSC)NS(=O)(=O)c1ccc(C)cc1)CC2 (stereo not given)	-3.0%	-6.3%	x	6.5%	-0.8%	-12.0%[46.1 µM]	x	-14.2%[46.1 µM]
CC(=O)CCc1oc2c([N+](=O)[O-])cccc2c1-c1ccc(C)o1	-14.0%	-12.7%	x	-25.5%	-5.0%	x	x	x
Cc1ccc(C)c(NC(=O)CN(Cc2ccccc2)S(=O)(=O)c2ccc3nc(C)sc3c2)c1	x	x	-3.5%	-17.1%	x	x	-1.6%	-2.2%[46.1 µM]
COc1ccc(CNC(=O)N2CCc3ccccc3C2)cc1	-0.3%	-8.6%	x	66.7%[activator]	1.3%	u	x	u
CCc1nc(SCC(=O)NNC(=O)C(C)C)c2ccccc2n1	5.9%	10.3%	-1.0%	-13.2%	-0.2%	-19.7%	5.1%	-13.7%
CCOc1ccc(NC(=O)CSc2ncc(S(=O)(=O)c3ccc(F)c(C)c3)c(=O)[nH]2)cc1	x	x	-14.4%	-3.1%	x	-4.9%[46.1 µM]	u	x
Cc1ccc(C)c(NC(=S)N(CCc2ccncc2)C(C)C)c1	-12.6%	x	x	-9.9%	-2.0%	6.1%[46.1 µM]	x	1.0%[46.1 µM]
Cc1ccc(S(=O)(=O)c2cc3c(=O)n4ccccc4nc3n(CCCN3CCOCC3)c2=N)cc1C	-10.1%	0.0%	x	-0.6%	-13.3%	u	x	u

Exported with two lines to a compound: entries from further up
Each structure is followed by: RE007 growth inh	NS1 inh	Cruzain inh Det	StopGo reporter	SARS PLpro yeast	MARV entry inh	Cruzain inh noDet	Lassa entry inh
COc1cc2c(cc1OC)CN(C(=O)C(CCSC)NS(=O)(=O)c1ccc(C)cc1)CC2 (stereo not given)
  -3.0%	-6.3%	x	6.5%	-0.8%	-12.0%[46.1 µM]	x	-14.2%[46.1 µM]
CC(=O)CCc1oc2c([N+](=O)[O-])cccc2c1-c1ccc(C)o1
  -14.0%	-12.7%	x	-25.5%	-5.0%	x	x	x
Cc1ccc(C)c(NC(=O)CN(Cc2ccccc2)S(=O)(=O)c2ccc3nc(C)sc3c2)c1
  x	x	-3.5%	-17.1%	x	x	-1.6%	-2.2%[46.1 µM]

(listing goes on)
SMILES	RE007 growth inh	NS1 inh	Cruzain inh Det	StopGo reporter	SARS PLpro yeast	MARV entry inh	Cruzain inh noDet	Lassa entry inh
O=C(CSc1ncnc2c1cnn2-c1ccc(F)cc1)NC1CCCC1	-9.2%	-6.6%	x	u	-0.6%	u	x	u
O=C(O)c1ccc2c(c1)C(=O)N(Cc1ccco1)C2=O	8.1%	0.8%	x	0.6%	1.0%	-4.5%	x	3.1%
Nc1nonc1-n1nnc(C(=O)N/N=C/c2cccc(F)c2)c1-c1ccccc1	5.9%	-8.0%	x	-3.5%	-4.4%	1.0%[46.1 µM]	x	-0.1%
Cc1cc(C(C)(C)C)cc(C)c1COC(=O)c1cccnc1	32.1%	-2.6%	x	u	-0.5%	u	x	-29.0%[46.1 µM]
COc1cc(Cl)ccc1OCc1cc(C(=O)N(C)Cc2cn(C)nc2C)no1	3.7%	0.8%	x	-29.9%	0.1%	-2.0%	x	1.1%
Cc1c(Cl)cccc1NC(=O)CCN1C(=O)c2ccccc2Sc2ncccc21	x	x	-3.3%	7.3%	x	x	3.5%	6.8%[46.1 µM]
CCC(C(=O)NC1CCCCC1)N(Cc1cccs1)C(=O)CCC(=O)Nc1cc(C)on1 (stereo not given)	8.4%	6.1%	x	-13.7%	-2.4%	u	x	u
CC(C)c1ccccc1OCC(=O)Nc1ccc2[nH]ncc2c1	-11.6%	-53.4%	x	-4.6%	-10.5%	-5.9%[46.1 µM]	x	u

A different layout for some results above:
SMILES,RE007 growth inh,NS1 inh,Cruzain inh Det,StopGo reporter,SARS PLpro yeast,MARV entry inh,Cruzain inh noDet,Lassa entry inh
Cc1cc(C(C)(C)C)cc(C)c1COC(=O)c1cccnc1,32.1%,-2.6%,x,u,-0.5%,u,x,-29.0%[46.1 µM]
COc1cc(Cl)ccc1OCc1cc(C(=O)N(C)Cc2cn(C)nc2C)no1,3.7%,0.8%,x,-29.9%,0.1%,-2.0%,x,1.1%
